Screening results deposited in PubChem BioAssay by National Center for Advancing Translational Sciences (NCATS).
VDR inh: Inhibitors of the vitamin D receptor (VDR): qHTS. Vitamin D3 receptor (Homo sapiens), P11473. Potency, µM, for inactives: max response, negative = inhibition, most hits filed as inhibitors. 400,000 compounds, 0.93% hits. VDR-SRC2-3 peptide fluorescence polarization, 2 h; active = well fitted inhibition curve with a large enough effect; inconclusive = small, poorly fitted or top-dose-only effect, or another doubt; inactive = no such curve, though single readings can be large or run the other way; note: series mostly up to about 120 µM
Target sequence (P11473 whole entry, looked up): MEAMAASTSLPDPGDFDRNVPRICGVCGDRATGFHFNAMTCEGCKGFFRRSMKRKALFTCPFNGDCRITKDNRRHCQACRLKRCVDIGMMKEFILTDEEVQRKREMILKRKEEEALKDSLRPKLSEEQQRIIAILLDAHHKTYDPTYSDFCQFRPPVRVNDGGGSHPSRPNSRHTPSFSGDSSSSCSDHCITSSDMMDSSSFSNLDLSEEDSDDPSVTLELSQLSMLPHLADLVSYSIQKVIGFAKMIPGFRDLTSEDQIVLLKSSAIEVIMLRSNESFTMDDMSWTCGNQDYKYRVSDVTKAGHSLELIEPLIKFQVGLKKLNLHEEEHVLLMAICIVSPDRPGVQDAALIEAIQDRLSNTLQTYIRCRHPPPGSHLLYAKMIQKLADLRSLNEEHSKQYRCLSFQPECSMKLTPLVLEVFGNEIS
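Signal is fluorescence polarization, reporting how far test compounds block the interaction of VDR with the SRC2-3 coregulator peptide after a 2 h room-temperature incubation.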
An asterisk follows results filed as active; & = joins results of further samples. % is set by controls: 0 for no effect and ±100 for the full control effect; potency is the fitted concentration of half-maximal effect. The list is partial, so the mix of outcomes need not match the whole.

Results for CCN1CCc2c(sc(NC(=O)C3CCCCC3)c2C(=O)OC)C1 ?
VDR inh: -12%

What do the screens show for `O=c1[nH]c(=O)n([C@@H]2C[C@H](O)[C@H](CO)O2)cc1I`?
VDR inh: 1%

What do the screens show for `CCCOC(=O)c1ccc(NC(=O)Cn2nnc3sc4c(c3c2=O)CCC(C(C)(C)C)C4)cc1` (stereo unspecified)?
VDR inh: -3%

How did COC(=O)c1c(-c2cccs2)csc1NC(=O)c1cccc(Cl)c1 do in these assays?
VDR inh: 4%

How did Cn1c(CCNC(=O)c2ccccc2F)nnc1SCc1nc2ccccc2c(=O)[nH]1 do in these assays?
VDR inh: 3%

How did CCCCn1nnc(NC(=O)Cc2ccc(Cl)cc2)n1 do in these assays?
VDR inh: -3%

How did Cc1ccccc1C(=O)Nc1ccc2c(c1)OCCO2 do in these assays?
VDR inh: 1%

What do the screens show for `Cc1c(NC(=O)c2nc3ccccc3n(C)c2=O)cccc1[N+](=O)[O-]`?
VDR inh: -1%

How did CCc1cccc2c(-c3ccc(F)cc3)nc(SCC(=O)Nc3ccccc3)nc12 do in these assays?
VDR inh: 3%

Results for CC(C)C(=O)Nc1ccc(NC(=O)CCc2ccccc2)cn1 ?
VDR inh: -6%

How did CCn1c(N2CCN(S(=O)(=O)c3ccc(OC)cc3)CC2)nc2ccccc21 do in these assays?
VDR inh: -16%

How did CC1CC(C)CN(CCCNC(=O)CCNC(=O)Cn2cnc3ccccc3c2=O)C1 (stereo unspecified) do in these assays?
VDR inh: -9%

How did O=C1NCCCN1Cc1ccc(Cl)cc1 do in these assays?
VDR inh: -10%

What do the screens show for `CCN(CC)S(=O)(=O)c1ccc(C(=O)Nc2ccc3c(c2)OCCO3)cc1`?
VDR inh: 13%

What do the screens show for `CCOC(=O)c1cc(-c2csc(COc3ccccc3Cl)n2)on1`?
VDR inh: 6%

Of the compounds above, these have fluorine.
How did Cn1c(CCNC(=O)c2ccccc2F)nnc1SCc1nc2ccccc2c(=O)[nH]1 do in these assays?
VDR inh: 3%

How did CCc1cccc2c(-c3ccc(F)cc3)nc(SCC(=O)Nc3ccccc3)nc12 do in these assays?
VDR inh: 3%

(next part)
Results for CCCCOc1ccc(S(N)(=O)=O)cc1 ?
VDR inh: 12%

Results for CC1=CC(C)(C)Nc2ccc(OC(=O)CN3C(=O)CCC3=O)cc21 ?
VDR inh: 9%

What do the screens show for `O=C(Nc1ccc(NC(=O)c2cccs2)cc1)c1ccc2c(c1)OCCO2`?
VDR inh: -9%

How did O=C(NCC1CCCO1)c1ccc(Br)o1 (stereo unspecified) do in these assays?
VDR inh: 6%

What do the screens show for `O=C(c1ccco1)N1CCN(Cc2cc(=O)c(OCc3cccc(F)c3)co2)CC1`?
VDR inh: -3%

What do the screens show for `N#CCC(=O)N/N=C\c1cccc(OC/C=C/c2ccccc2)c1`?
VDR inh: -7%

Results for Cc1ccc(NC(=O)c2cc(-c3ccc(C)c(C)c3O)n[nH]2)cc1C ?
VDR inh: 7%

What do the screens show for `Cc1ccc(C(=O)NCCC(=O)Nc2ccccc2C)cc1`?
VDR inh: -3%

What do the screens show for `Cc1cc(C)n(C2CC(=O)N(c3ccc(C)c(Cl)c3)C2=O)n1` (stereo unspecified)?
VDR inh: -6%

How did CC(=O)Nc1nc(N2C(=O)c3ccccc3C2=O)n(-c2ccccc2)n1 do in these assays?
VDR inh: -10%

How did Cc1ccc([N+](=O)[O-])cc1/C=N/Nc1nnnn1-c1ccccc1 do in these assays?
VDR inh: 17%

What do the screens show for `CC(C)NC(=O)COC(=O)/C=C/c1ccc(F)cc1`?
VDR inh: -10%

How did CCOC(=O)c1ccc(NC(=O)CN(C)S(=O)(=O)c2ccc(Br)s2)cc1 do in these assays?
VDR inh: 5%

How did Cc1nc2ccc(CCO)cc2s1 do in these assays?
VDR inh: -7%

How did CC[C@H](C)[C@H](NC(=O)[C@H](Cc1ccc(O)cc1)NC(=O)[C@H](Cc1cnc[nH]1)NC(=O)[C@H](CCCNC(=N)N)NC(=O)[C@H](CC(C)C)NC(=O)[C@H](C)NC(=O)[C@H](CO)NC(=O)[C@H](Cc1ccc(O)cc1)NC(=O)[C@H](Cc1ccc(O)cc1)NC(=O)[C@H](CCCNC(=N)N)NC(=O)[C@H](C)NC(=O)[C@H](CCSC)NC(=O)[C@H](CC(=O)O)NC(=O)[C@H](CCC(=O)O)NC(=O)[C@H](C)NC(=O)[C@@H]1CCCN1C(=O)[C@H](C)NC(=O)[C@H](CC(=O)O)NC(=O)[C@H](CCC(=O)O)NC(=O)CNC(=O)[C@@H]1CCCN1C(=O)[C@H](CC(N)=O)NC(=O)[C@H](CC(=O)O)NC(=O)[C@@H]1CCCN1C(=O)[C@H](CCCCN)NC(=O)[C@H](CO)NC(=O)[C@@H]1CCCN1C(=O)[C@@H](N)Cc1ccc(O)cc1)C(=O)N[C@@H](CC(N)=O)C(=O)N[C@@H](CC(C)C)C(=O)N[C@H](C(=O)N[C@H](C(=O)N[C@@H](CCCNC(=N)N)C(=O)N[C@@H](CCC(N)=O)C(=O)N[C@@H](CCCNC(=N)N)C(=O)N[C@@H](Cc1ccc(O)cc1)C(N)=O)[C@@H](C)O)[C@@H](C)CC do in these assays?
VDR inh: -3%

How did O=S1(=O)CC2SC(=S)N(Cc3ccccc3)C2C1 (stereo unspecified) do in these assays?
VDR inh: 9%

Results for Cn1c(CO)cnc1-c1ccccc1 ?
VDR inh: -11%

How did Cc1cc(NC(=O)CSCC(=O)N(C)Cc2ccc(F)cc2)no1 do in these assays?
VDR inh: 8%

How did COc1ccc(CCNC(=O)c2c(O)c3ccccc3[nH]c2=O)cc1 do in these assays?
VDR inh: -20%

What do the screens show for `CSc1ncnc2sc(C)c(C)c12`?
VDR inh: -7%

What do the screens show for `CCCNC(=O)c1ccccc1C(=O)NC1(C(=O)NCCC)CCCC1`?
VDR inh: -18%

What do the screens show for `O=C(NCCN1CCOCC1)[C@H](Cc1ccccc1)N1C(=O)c2ccccc2C1=O`?
VDR inh: 16%

What do the screens show for `COc1ccc(CCNC(=O)C2c3ccccc3C(=O)N2Cc2ccccc2)cc1OC` (stereo unspecified)?
VDR inh: -4%

What do the screens show for `COc1cc(C(=O)Nc2nnc(C)s2)c([N+](=O)[O-])cc1OC`?
VDR inh: -9%

What do the screens show for `Cc1ccc(C(=O)N/N=c2\sc3ccccc3n2C)cc1`?
VDR inh: -25%

What do the screens show for `COc1cccc(OC)c1C(=O)Nc1cccc2c1CCCC2`?
VDR inh: -29%

Results for Cc1cc(C)cc(NC(=O)C(=O)NCC(c2cccnc2)N2CCc3ccccc32)c1 (stereo unspecified) ?
VDR inh: 1%

How did CCOC(=O)c1c(C)oc2ncnc(Nc3ccc(CC)cc3)c12 do in these assays?
VDR inh: -9%

What do the screens show for `CC1Cc2cc(S(=O)(=O)N(Cc3ccccc3)C(C)C)ccc2N1C(=O)C1CCC1` (stereo unspecified)?
VDR inh: 4%

Results for CC(=O)Oc1ccc(-c2ccc(C(=O)OCC(=O)c3c(N)n(C)c(=O)n(C)c3=O)cc2)cc1 ?
VDR inh: 7%

What do the screens show for `CC(c1nnc(SCC(=O)c2c(N)n(C)c(=O)n(C)c2=O)n1-c1ccc(Cl)cc1)N(C)C` (stereo unspecified)?
VDR inh: 0%

What do the screens show for `COc1ccc(-c2nc(SCC(=O)NC(C)CCc3ccccc3)n[nH]2)cc1` (stereo unspecified)?
VDR inh: -1%

What do the screens show for `Cc1ccc(SC(c2ccccc2)C(Cn2cncn2)C(=O)c2ccccc2)cc1` (stereo unspecified)?
VDR inh: -1%

What do the screens show for `CN(c1ccccc1)S(=O)(=O)c1cccc(NC(=O)C2=NNC(=O)CC2)c1`?
VDR inh: 3%

What do the screens show for `O=C1[C@H]2[C@@H](/C=C/c3ccccc3)N3C(=O)CN(CCO)C(=O)[C@@]3(Cc3ccccc3)[C@H]2C(=O)N1c1ccccc1`?
VDR inh: -6%

What do the screens show for `COc1ccc(/C(C)=N/N2C(=O)c3ccccc3NC2c2ccc(O)c(OC)c2)cc1` (stereo unspecified)?
VDR inh: 18%

Results for Cc1c(Br)c([N+](=O)[O-])nn1CC(=O)N1CCc2ccccc21 ?
VDR inh: 4%

Results for COc1cccc2sc(NNC(=O)C3COc4ccccc4O3)nc12 (stereo unspecified) ?
VDR inh: 10%

What do the screens show for `O=C(c1ccc(F)cc1)C1CCN(C(=O)Nc2ccccc2Cl)CC1`?
VDR inh: -9%

How did Cc1cc(/C=C(\C#N)C(=O)O)c(C)n1CC1CCCO1 (stereo unspecified) do in these assays?
VDR inh: inconclusive

What do the screens show for `Cn1ncc(Cl)c1C(=O)Nc1cccnc1`?
VDR inh: 5%

How did Cc1ccc(C(=O)Nc2ccc3cn[nH]c3c2)cc1S(=O)(=O)N1CCCCC1 do in these assays?
VDR inh: 8%

Results for CCCCN(C(=O)CSc1cc(C)c2ccccc2n1)c1c(N)n(Cc2ccccc2)c(=O)[nH]c1=O ?
VDR inh: inconclusive

Results for CCc1ccc2oc(-c3cccc(NC(=O)COc4ccccc4Cl)c3)nc2c1 ?
VDR inh: -7%

What do the screens show for `Cc1nc2cc(C(F)(F)F)ccc2n1C1CCN(C(=O)N2CCOCC2)CC1`?
VDR inh: -4%

Quoted from the results shown (six entries):
What do the screens show for `COc1ccc(/C(C)=N/N2C(=O)c3ccccc3NC2c2ccc(O)c(OC)c2)cc1` (stereo unspecified)?
VDR inh: 18%

Results for Cc1c(Br)c([N+](=O)[O-])nn1CC(=O)N1CCc2ccccc21 ?
VDR inh: 4%

Results for COc1cccc2sc(NNC(=O)C3COc4ccccc4O3)nc12 (stereo unspecified) ?
VDR inh: 10%

What do the screens show for `O=C(c1ccc(F)cc1)C1CCN(C(=O)Nc2ccccc2Cl)CC1`?
VDR inh: -9%

How did Cc1cc(/C=C(\C#N)C(=O)O)c(C)n1CC1CCCO1 (stereo unspecified) do in these assays?
VDR inh: inconclusive

What do the screens show for `Cn1ncc(Cl)c1C(=O)Nc1cccnc1`?
VDR inh: 5%

Going on with the list.
Results for CCCc1nnc(SCC(=O)N2CCCCC2C)n1CCCOC (stereo unspecified) ?
VDR inh: 2%

Results for COc1ccc(C(C(=O)NC2CCCC2)N(C(=O)c2snc(C(N)=O)c2N)c2cc(C)ccc2OC)cc1OC (stereo unspecified) ?
VDR inh: 15%

Results for CCOC(=O)c1sc2nc(NC(=O)C3CCCCC3)sc2c1C ?
VDR inh: -13%

Results for Cc1cc(C)c2c(CC(=O)N3CCCC3)coc2c1 ?
VDR inh: -4%

How did Cc1ccc(NC(=O)c2ccc(=O)n(CC(=O)Nc3c(C)cc(C)cc3C)n2)cc1 do in these assays?
VDR inh: 22%&15%

Results for C/C(=N\OCC(=O)N/N=C/c1ccccc1O)c1cccs1 ?
VDR inh: -11%

What do the screens show for `C=C(C)COc1ccc(-c2nc(N)ncc2-c2ccccc2OC)c(O)c1`?
VDR inh: 13%

How did CC1(C)Cc2nc3sc4c(=O)n(CC(=O)NCc5ccccc5)cnc4c3cc2CO1 do in these assays?
VDR inh: 14%

How did Cc1ccccc1NC(=O)c1ccc(NC(=O)C2CC(=O)OC23CCCCC3)cc1 (stereo unspecified) do in these assays?
VDR inh: 6%

Results for CC(=O)c1cccc(NC(=O)CSc2nc3ccccc3nc2Cc2ccc(F)cc2)c1 ?
VDR inh: 10%

Results for COc1cc(/C=C/C(=O)OCC(=O)NCc2ccco2)cc(OC)c1OC ?
VDR inh: 7%

What do the screens show for `CCOCCCNC(=S)NNC(=O)CCn1nc(C)c(Br)c1C`?
VDR inh: -7%

What do the screens show for `CC(=O)N1CCN(C(=O)CC2OC(=O)c3ccccc32)CC1` (stereo unspecified)?
VDR inh: inconclusive

How did Cc1cccc(NS(=O)(=O)c2ccccc2)n1 do in these assays?
VDR inh: 0%

How did O=C(O)CC(C(=O)Nc1ccc(Cl)cc1Cl)C1CCCO1 (stereo unspecified) do in these assays?
VDR inh: -19%

Arranged by SMILES length (highest first): some entries from above.
What do the screens show for `CC(=O)N1CCN(C(=O)CC2OC(=O)c3ccccc32)CC1` (stereo unspecified)?
VDR inh: inconclusive

Results for C/C(=N\OCC(=O)N/N=C/c1ccccc1O)c1cccs1 ?
VDR inh: -11%

How did Cc1cccc(NS(=O)(=O)c2ccccc2)n1 do in these assays?
VDR inh: 0%

Continuation.
How did Cn1ncc2c(NNC(=O)C3CCCCC3)ncnc21 do in these assays?
VDR inh: -22%

What do the screens show for `CCC1CCCCN1C(=O)c1cc2cc(Br)ccc2oc1=O` (stereo unspecified)?
VDR inh: 1%

What do the screens show for `CC1CN(C(=O)c2cccc(COc3ccccc3Cl)c2)CC(C)O1` (stereo unspecified)?
VDR inh: -18%

What do the screens show for `CC1CCN(CCCCOc2ccc([N+](=O)[O-])cc2)CC1`?
VDR inh: -3%

How did CCOC(=O)C1CCCN(c2c(Nc3cccc(C)c3)c(=O)c2=O)C1 (stereo unspecified) do in these assays?
VDR inh: -9%

What do the screens show for `O=[N+]([O-])c1nn(-c2ccc3c(c2)OCCO3)n(O)c1=NC1CCN(Cc2ccccc2)CC1`?
VDR inh: 7%

How did O=C(CSc1nccc(=O)[nH]1)Nc1ccc(N2CCOCC2)c(Cl)c1 do in these assays?
VDR inh: 15%

Results for CC1=C(C(=O)OCC(C)C)C(c2cccc(F)c2)N2C(=O)C(C)SC2=N1 (stereo unspecified) ?
VDR inh: 8%

How did CCOc1ccccc1NC(=O)C(C)SCc1ccccc1 (stereo unspecified) do in these assays?
VDR inh: -7%

What do the screens show for `Cc1ccc(-c2cc(C(=O)NC3CCCCC3)no2)cc1`?
VDR inh: -12%

What do the screens show for `CC(=O)Nc1cc(O)c2nonc2c1O`?
VDR inh: 4.5µM*

How did O=C(c1ccccc1)N1CCN(CC(O)Cn2ccc3ccccc32)CC1 (stereo unspecified) do in these assays?
VDR inh: 26%

What do the screens show for `COc1cc(C)c(CN2CCN(S(=O)(=O)c3ccc(Cl)s3)CC2)cc1OC`?
VDR inh: -15%

How did c1ccc(Sc2ncnc3c2oc2ccccc23)nc1 do in these assays?
VDR inh: 2%

Results for CN1CCN(CC(=O)Nc2c(C(=O)C3CC3)oc3ccccc23)CC1 ?
VDR inh: 7%
